# Assay outcomes as filed in PubChem.
# Calb FLC = C. albicans growth inhibition with fluconazole, primary screen, CaCi-2 strain, Alamar Blue fluorescence; growth inhibition, % (no concentration beside the values); actives 0.57% (n = 300,000); C. albicans CaCi-2 (fluconazole-resistant clinical isolate) + fluconazole, 48 h; AID 1979, 2009;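 active = most replicates above 75%; inconclusive = exactly half above 75%; inactive = most below 75%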;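 note: all wells also contain fluconazole at 8 µg/ml as a sub-toxic cotreatment; 0% = median of DMSO wells and 100% = median of geldanamycin control wells; wells of about 8 µL received 7.5 nL stock; the first replicate is given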
# RanGTP-Impb inh = inhibitors of RanGTP-importin-beta interaction, primary screen, biochemical, FRET, CFP-Ran, YFP-importin-beta, homogeneous; AID 2216, 2009; Ran GTPase (GTP-bound) - importin-beta complex; actives 1.1% (n = 300,000); cell-free CFP-Ran/YFP-importin-beta FRET ratio; inhibition, % (test concentration not listed);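 active = most replicates above 15%; inconclusive = exactly half above 15%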;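 note: 0% = DMSO wells and 100% = Ran loaded with GDP instead of GTP; wells of about 40 µL received 100 nL stock; the first replicate is given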
# A1 inh = caspase 3/7 activation in MEF A1-2A-BIM cells, primary screen, A1 inhibitor project, cell-based, luminescence, HTS. Caspase-Glo 3/7 luminescence, 3 h; percent of clofoctol response, vehicle zero. caspase activation, % (no concentration beside the values). actives 0.066% (n = 330,000). AID 2462, 2010;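 active = over half of replicate activation scores above 10%, or exactly half above 10 with the replicate mean above 10; inconclusive = replicate mean below 10 yet half the replicates above 10; inactive = over half of replicates below 10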;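 note: wells of about 30 µL received 50 nL stock; many hits fall short of the cut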
# MLL AF4-AF9 inh = inhibitors of AF4 peptide binding to AF9, primary screen, biochemical, AlphaScreen, biotin-AF4 peptide, FLAG-AF9, single point; Protein AF-9 (Homo sapiens), P42568; inhibition, % at 10 µM; actives 0.47% (n = 350,000); AID 651704, 2012;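 active = every replicate reaching a set inhibition limit, whatever the replicate mean, cut at about 25% in these data; inconclusive = mean inhibition reaches that limit but some replicates miss it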;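 note: 0% = plate neutral control median and 100% = total signal loss; the record names both 10 and 1 µM as test concentration; the first replicate is given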
# Target sequence (P42568 whole entry, looked up): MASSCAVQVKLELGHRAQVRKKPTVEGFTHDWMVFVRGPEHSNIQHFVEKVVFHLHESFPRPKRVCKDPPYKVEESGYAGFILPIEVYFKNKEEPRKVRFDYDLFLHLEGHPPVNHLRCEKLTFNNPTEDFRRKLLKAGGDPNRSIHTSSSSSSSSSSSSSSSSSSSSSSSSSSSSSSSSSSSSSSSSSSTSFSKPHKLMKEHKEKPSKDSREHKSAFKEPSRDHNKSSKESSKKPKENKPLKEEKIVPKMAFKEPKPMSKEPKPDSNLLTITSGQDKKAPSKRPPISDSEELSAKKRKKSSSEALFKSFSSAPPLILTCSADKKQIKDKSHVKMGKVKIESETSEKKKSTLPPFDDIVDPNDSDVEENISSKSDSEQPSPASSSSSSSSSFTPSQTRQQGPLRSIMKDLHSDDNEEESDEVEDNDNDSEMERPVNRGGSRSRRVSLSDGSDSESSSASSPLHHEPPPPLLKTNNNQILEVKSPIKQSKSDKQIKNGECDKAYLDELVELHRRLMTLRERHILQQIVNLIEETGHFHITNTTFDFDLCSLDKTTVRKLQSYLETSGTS
# Vif TR-FRET = inhibitors of Vif binding to APOBEC3G peptide, primary screen, biochemical, TR-FRET, GST-Vif 1-94, biotin-A3G peptide, dose response retest (AID 1117319) | Virion infectivity factor (Human immunodeficiency virus type 1 group M subtype B (isolate … | TR-FRET GST-Vif / biotin-A3G peptide binding; higher % means a stronger effect; test concentration not given here; strong numbers were not always called active | one-dose inhibition, %; IC50 in µM for titrated hits | actives 0.57% (n = 260,000);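 active = above the screen mean plus three standard deviations and confirmed in dose response; inconclusive = results disagree or hit not tested in dose response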;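 note: Vif residues 1-94 fused to GST binding biotinylated APOBEC3G peptide 110-148; 0% = full assay without inhibitor and 100% = GST in place of GST-Vif; retest series ran down from 100 µM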
# Beta cell apopt = inhibitors of cytokine-induced beta cell apoptosis, primary screen, luminescence; INS-1E cytokine-induced death, ATP luminescence, 48 h; percent of positive-control rescue, neutral wells zero; protection from apoptosis, % (concentration not given with the values); actives 0.8% (n = 300,000); AID 435005, 2010;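 active = all replicates at 75% or more, or half of them and the mean; inconclusive = half reach 75% but not the mean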;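 note: 0% = cytokine-treated negative control wells and 100% = positive control rescue; higher means more ATP so stronger rescue from cytokine killing; wells of about 40 µL received 100 nL stock; the first replicate is given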
# LANA-H2B inh = blockers of LANA interaction with H2A/H2B – biochemical, FP readout, HTS, primary screen; Protein LANA1 (Human herpesvirus 8 type P (isolate GK18)), Q9QR71; cell-free LANA-H2A/H2B peptide, fluorescence polarization; inhibition, % (test concentration not listed); actives 0.6% (n = 320,000); AID 2629, 2010; in the data active = inhibition mostly above about 10%, no sharp cut-off; inactive = mostly below about 6.7%;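 note: stock transfer was 7.5 nL into about 10 µL; 0% = median of vehicle wells and 100% = median of positive control wells; one replicate is shown; the record names a cut of 25% in any replicate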
# T cruzi inh = inhibitors of intracellular T. cruzi growth, primary screen, luminescence, NIH3T3 host cells. T. cruzi beta-gal in NIH3T3, 90 h. inhibition, % (concentration not given with the values). actives 1.4% (n = 300,000). AID 1885, 2009;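 active = mean inhibition across valid replicates above about 55%, limit read from the data; inconclusive = mean below that limit but half or more replicates reach it; inactive = mean below it, under half of replicates reach it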;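 note: signal also drops with host cell toxicity which is not excluded here; 0% = plate median of DMSO wells and 100% = zero luminescence signal; higher percent means less beta-gal luminescence so fewer parasites; stock transfer was 50 nL into about 50 µL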
# An asterisk follows results filed as active; ? = inconclusive; / = no result given; & = joins results of further samples. An unsorted share of the library; any-hit rate near 4.3%.
SMILES,Calb FLC,RanGTP-Impb inh,A1 inh,MLL AF4-AF9 inh,Vif TR-FRET,Beta cell apopt,LANA-H2B inh,T cruzi inh
CC1=CC=CC2=NC(=O)CC(C)(C(=O)N(CC(=O)NC(C)C)C3CCCC3)N12 (stereo not drawn),-7,8.2,0.5,0.9,4%,-1,-0.6,-4
CC1Cc2ccccc2N1C(=O)COC(=O)CSc1ccc(F)cc1 (stereo not drawn),-6,5.6,?,-2.8,-6%,1,-5.8,4
CCN1C(=O)CSC1=NC12CC3CC(CC(C3)C1)C2,-2,-2.3,0.2,3.9,-5%,-2,-1.2,13
COC(=O)C1(C)NC(c2ccc(F)cc2)C2C(=O)N(c3ccc(C)cc3)C(=O)C21 (stereo not drawn),-6,-8.2,0.1,-1.3,-3%,1,0.1,-13
CC(C)N(Cc1ccccc1)C(=O)CCc1ccccc1,-3,2.3,0.2,3.7,-8%,-1,2.8,-3
CSC1=NSC2=NC(=O)/C(=C\c3ccc(OC(=O)c4ccco4)cc3)C(=N)N12,5,?,-3.8,-1.9,/,-4,3.2,-15
CCC(C)(C)n1nnnc1C(CC(C)C)N1CCC(C(N)=O)CC1 (stereo not drawn),-10,25,-0.4,/,?,-10,2.4,-13
CON(C)S(=O)(=O)c1ccc2c(c1)N(Cc1ccc(C)cc1)C(=O)C1CCCN21 (stereo not drawn),18,0.9,-0.4,1.3,-12%,/,-0.1,9
CC(C)(C)NC(=O)CSC(=Nc1cccc(F)c1)NC#N,16,-0.7,0.4,/,19%,-11,-1.9,-1
CCN1CCN(C(=O)c2ccc(C(F)(F)F)cc2)CC1,32,4.3,1.6,-1.0,25%,-3,5.5,-8
COc1ccc(OCC(=O)OCCN2C(=O)c3ccccc3C2=O)cc1,25,0.6,1.2,/,7%,-2,1.3,4
Cc1cc(C(=O)OCC(=O)Nc2ccccc2F)c(C)o1,2,?,-0.3,/,0%,1,-0.9,-6
O=c1c2ccccc2nc(COc2ccccc2)n1/N=C/c1c[nH]c2ccccc12,31,7.1,-1.1,-14,11%,3,/,23
CCOc1cccc(C2C(C#N)=C(N)Oc3cc(C)n(Cc4ccccn4)c(=O)c32)c1OCC (stereo not drawn),-12,3.6,0.3,/,14%,2,0.9,-10
CCOc1ccc2nc(SCC(=O)NCc3ccco3)sc2c1,3,4.9,-0.9,/,5%,6,2.6,7
Cc1c(Cc2ccccc2)c(=O)oc2cc(OCC(=O)NCC(O)c3ccccc3)ccc12 (stereo not drawn),10,1.5,0.3,1.9,/,4,-6.4,-9
COc1ccccc1C(=O)NNC(=O)c1ccc(NS(=O)(=O)c2cccs2)cc1,7,-1.3,-0.1,-5.7,-4%,0,-0.2,20
Cc1cc(C(=O)OCC(=O)NC(=O)NC(C)(C)C)c(C)o1,-11,0.1,-0.2,/,4%,-1,4.3,-5
COc1cc(/C=N/NC(=O)CC2(C)OCCCO2)ccc1OCc1ccc(Cl)cc1Cl,31,1.9,0.3,/,-3%,5,-1.0,14
Cc1cccc(OCC(=O)Nc2nnc(-c3ccco3)s2)c1,14,1.9,-0.5,-2.3,/,1,1.5,-11

# 4 entries out of the list, sorted by count of non-hydrogen atoms, low to high:
SMILES,Calb FLC,RanGTP-Impb inh,A1 inh,MLL AF4-AF9 inh,Vif TR-FRET,Beta cell apopt,LANA-H2B inh,T cruzi inh
CC(C)(C)NC(=O)CSC(=Nc1cccc(F)c1)NC#N,16,-0.7,0.4,/,19%,-11,-1.9,-1
CCOc1ccc2nc(SCC(=O)NCc3ccco3)sc2c1,3,4.9,-0.9,/,5%,6,2.6,7
COc1ccc(OCC(=O)OCCN2C(=O)c3ccccc3C2=O)cc1,25,0.6,1.2,/,7%,-2,1.3,4
CC1=CC=CC2=NC(=O)CC(C)(C(=O)N(CC(=O)NC(C)C)C3CCCC3)N12 (stereo not drawn),-7,8.2,0.5,0.9,4%,-1,-0.6,-4

# Additional structures
SMILES,Calb FLC,RanGTP-Impb inh,A1 inh,MLL AF4-AF9 inh,Vif TR-FRET,Beta cell apopt,LANA-H2B inh,T cruzi inh
COc1ccc(N/C=C(\C2OC(=O)c3ccccc32)[N+](=O)[O-])cc1 (stereo not drawn),-4,-1.3,-0.2,-1.6,5%,-11,0.7,-22
CCc1ccccc1OCC(=O)Nc1cccc(S(=O)(=O)NC2=NCCCCC2)c1,/,/,0.6,-2.0,-1%,2,6.7,/
NC(=O)C[n+]1cccc(C(=O)Nc2ccccc2)c1,4,-6.3,0.3,-10.0,-2%,-5,1.6,-10
COCC(=O)OCn1nnc2ccccc2c1=O,4,-0.5,-0.1,/,?,-10,-0.1,3
COC(=O)C1CCN(C(=O)COC(=O)C2CCN(S(=O)(=O)c3c(Cl)cccc3Cl)CC2)CC1,/,-0.6,0.5,-0.7,1%,-1,-2.3,-5
O=C(Cc1ccc([N+](=O)[O-])cc1)Nc1ccc(Br)cn1,49,2.7,-0.2,-0.4,-6%,-6,2.8,13
CC(=O)Nc1ccc(C(=O)N/N=C/c2ccc(F)cc2)cc1,8,-2.8,0.0,-1.4,4%,-4,-6.2,2
CCN1CCN(c2nc3sc4c(c3c3ncnn23)CC(C)CC4)CC1 (stereo not drawn),-17,-3.1,-0.5,/,-3%,9,-2.1,26
CCCNC(=O)c1ccc2c(=O)c(O)c(C)[nH]c2c1,-3,-3.2,-0.4,2.4,-6%,-4,7.0,-9
O=C(NCCc1ccccc1)C1COc2ccccc2O1 (stereo not drawn),1,3.7,-0.7,-2.3,-5%,-10,0.2,-2
c1ccc(-c2nc3ccccc3c3nncn23)cc1,3,-3.8,0.8,/,19%,-4,1.5,-14
O=C(Nc1ccc2nc3n(c(=O)c2c1)CCCCC3)C(=O)N1CCN(c2ccccc2)CC1,25,-0.9,0.1,-3.3,/,3,-2.3,22
COc1cc(/C=C2\C(=O)NN(c3ccccc3)C2=O)ccc1OCC(N)=O,-33,1.2,0.1,-1.6,3%,-8,3.4,-4
Cc1cc2cc(OCc3ccccc3)ccc2n1C,-11,1.4,-5.8,2.3,/,-6,-1.7,-3
O=C(/C=C/c1ccc(F)cc1)N1CC[C@@]2(O)CCCC[C@H]2C1,-2,-1.3,0.0,-3.2,/,/,4.7*,2
Cc1ccc(S(=O)(=O)N(C)CC(=O)OCC(=O)c2ccc3c(c2)NC(=O)CO3)cc1,/,/,0.5,3.4,-4%,-10,0.8,/
N#C/C(=C\c1ccc(OC(F)F)cc1)C(=O)N1CCCCC1,-5,1.9,2.0,8.0,-4%,-5,3.3,-3
CC(=O)Nc1ccc(NC(=O)COc2ccc(Cl)cc2Cl)cc1,-9,3.5,-0.1,-1.4,0%,3,1.1,-1
CC(=O)C[C@@H](O)CC(=O)[C@@H]1OC(=O)[C@@H](C)C/C=C\Cc2ccccc21,/,/,0.7,-2.5,3%,0,-6.4,/
CC(Sc1ccccc1)C(=O)NN=C1CCN(C)CC1 (stereo not drawn),5,2.1,-0.3,-0.4,/,-1,0.3,-6
Cc1noc(C)c1NC(=O)N(C)C[C@@H]1Oc2c(NC(=O)c3ccncc3)cccc2C(=O)N([C@H](C)CO)C[C@@H]1C,/,/,1.8,-1.8&2.8,/,4,-8.4,/
Cc1cc(C)n2cc(COc3ccc4ccccc4c3)nc2n1,1,2.0,-0.9,-5.1,1%,-1,-2.8,6
O=C1/C(=C/c2cccnc2)Oc2cc(OS(=O)(=O)c3ccc(Cl)cc3)ccc21,-7,2.4,-0.1,/,0%,-3,0.3,1
OCCC1CN(Cc2cc(F)ccc2-n2cccn2)CCN1Cc1ccc(F)cc1 (stereo not drawn),-2,-1.2,1.0,-6.2,?,-6,6.4,-2
CCOCCCNc1c2c(nc3cc(-c4ccc(F)cc4)nn13)CCC2,-4,1.9,1.2,-1.0,-3%,-2,1.2,7
CCc1ccccc1N1CC23C=CC(O2)C(C(=O)O)C3C1=O (stereo not drawn),-5,-0.2,0.0,0.5,6%,-8,0.5,-1
O=C(CSC1=N/C(=C/c2ccc(Cl)c(Cl)c2)C(=O)N1c1ccccc1F)NC1CC1,-2,4.1,-0.4,-0.5,/,6,0.4,10
O=C(NCC1CCCO1)C(=O)N/N=C/c1ccc(O)c(Cl)c1 (stereo not drawn),-4,0.2,0.2,2.0,-1%,-2,2.6,-6
O=C(NCC1CCCO1)C1CCN(S(=O)(=O)c2cccnc2)CC1 (stereo not drawn),-5,-0.8,-0.4,/,21%,-5,-2.7,-3
Cc1ccc(NS(=O)(=O)c2ccc(NC(=O)[C@@H]3CCCC[C@@H]3C(=O)O)cc2)c(C)c1,10,2.2,0.9,/,6%,/,0.3,-3
CCOc1ccc(C(=O)COC(=O)c2ccc(-n3cnnn3)cc2)cc1,-22,0.1,-0.2,0.3,-24%,-8,-0.9,-4
COc1ccc(NC(=O)C2C(=O)N(CCO)C3(C)CC2c2ccccc2O3)cc1 (stereo not drawn),-2,4.2,0.7,-8.7,2%&19%,1,-3.9&0.1,-8
Cc1ccc2c(CN(C)Cc3ccccc3)cc(=O)oc2c1C,6,0.0,-0.8,-4.4,8%,4,1.9,11
CC1CC(C)CN(S(=O)(=O)N2CCCC(C(=O)NC3CCCCC3C)C2)C1 (stereo not drawn),-9,-2.2,0.1,-5.1,0%,-9,-3.8,4
Cc1c(C(C)(C)C)c(C=S)n2ccccc12,-9,8.3,0.4,/,22%,0,3.1,35
C[C@@H]1CN([C@H](C)CO)C(=O)Cc2cc(NS(=O)(=O)c3ccc(F)cc3)ccc2O[C@H]1CN(C)Cc1ccc(C(=O)O)cc1,/,/,0.0,-31&-1.9,/,1,1.4,/
CC(=O)NS(=O)(=O)c1ccc(NC(=O)CCc2ccccc2)cc1,26,7.4,-0.2,-0.3,12%,-2,-3.4,-24
CCOc1cc(/C=N/Nc2nc3ccccc3[nH]2)cc(Br)c1OCC(=O)N(C)C,-2,8.3,0.3,4.4,23%,22,2.2,11
CN1c2ccccc2C(C)(C)C12C=Cc1cc(O)ccc1O2 (stereo not drawn),8,-5.3,0.2,?,?,65,1.6,35
CCc1ccc(CN2CCC(n3nccc3NC(=O)C3CCCC3)CC2)cc1,-8,-2.8,-0.2,4.2,-2%,1,1.0,38
CCC(C)c1ccccc1NC(=O)COC(=O)c1ccc2c(c1)S(=O)(=O)c1ccccc1C2=O (stereo not drawn),-4,1.0,0.8,/,16%,4,3.4,-4
